High-throughput results from PubChem BioAssay.
RN4220 kill: kills Staphylococcus aureus RN4220; 330,000 compounds, 0.33% hits; inhibition, % (no concentration beside the values); S. aureus RN4220 growth, OD600, 16 h;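 active = z-score of -3 or lower and OD600 up to 0.18 on both plates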;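 also: plate controls were untreated cells for no effect and reference antibiotic for full effect; stock transfer was 100 nL into about 80 µL; one replicate is shown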
BJeLR lethal: BJeLR cell viability loss; BJeLR (HRASV12) viability, CellTiter-Glo ATP luminescence, 48 h; reference of the scale not given here; inhibition, % (concentration not given with the values); 300,000 compounds, 0.17% hits; AID 1554;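 active = replicate mean above 50%; inconclusive = above 50% but judged a plate artefact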;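 also: 50 nL library stock added to about 25 µL; numbers are from one replicate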
Sa ugtP lethal: growth inhibition of S. aureus ugtP deletion strain; 330,000 compounds, 0.54% hits; AID 1259309; S. aureus RN4220 ugtP deletion, OD600 growth, 16 h; some inactives read as strong as hits; growth inhibition, % (test concentration not listed);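 active = z-score under -3 and OD600 up to 0.15 on both plates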;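 also: plate controls were untreated wells for no effect and antibiotic for full effect; wells of about 80 µL received 100 nL stock; the first replicate is given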
Bead autofluor: counter-screen for toxin protease inhibitors: compound fluorescence. 360,000 compounds, 3.1% hits. compound autofluorescence counterscreen, microsphere flow cytometry; active compounds read high. fluorescence intensity (concentration not given with the values);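 active = at least 3 SD above the mean of all compounds, about 16000 in these data; inconclusive = too few beads counted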;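 also: 100 nL of 1 mM stock went into each well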
PrP 5UTR inh: inhibition of PrP 5' UTR reporter expression | cell-based PrP 5' UTR mRNA reporter, plate reader | inhibition, % (test concentration not listed) | 340,000 compounds, 0.35% hits;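 active = every replicate at 50% or more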;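 also: 0 = median of the neutral control wells; tested in H4 reporter cells; numbers are from one replicate; inactives centre near -14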
Mtb hypoxia rep: reduces hypoxia-regulated biosensor signal in M. tuberculosis | M. tuberculosis hypoxia-regulated fluorescent reporter, fluorescence | fluorescence inhibition, % (test concentration not listed) | 300,000 compounds, 0.1% hits | AID 1159583;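 active = 35 to 45% if threefold the growth effect, above 45% if 1.5-fold the growth effect; inactive = the rest, general growth blockers included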;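 also: wells of about 50 µL received 100 nL stock; 0% = vehicle wells and 100% = reference inhibitor wells; whole bacteria with a GFP reporter of the hypoxia response; strong numbers were not always called active; many hits fall short of the cut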
Mtb hypoxia rep growth: further read-out of Mtb hypoxia rep, marked with its call; growth inhibition, %; measured here: M. tuberculosis growth (absorbance);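 0% = vehicle and 100% = reference antibiotic; read after six days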
The depositor's hits bear a star; ? = inconclusive; nt = no result given; & = joins results of further samples. Random draw from the library. About 4.1% of those tested had a hit in this group.

item | SMILES | BJeLR lethal | Mtb hypoxia rep | PrP 5UTR inh | RN4220 kill | Sa ugtP lethal | Bead autofluor | Mtb hypoxia rep growth
1 | CSc1nc(N2CCCC2)c2c(c1C#N)CC(C)(C)OC2 | 1 | 6 | -12 | 2.8 | 0 | 4194 | 6
2 | Cc1cccc2cc3c(N)c(C#N)sc3nc12 | -4 | 5 | -22 | 2.3 | -8 | 9810 | 7
3 | Cc1ccc(S(=O)(=O)NC(CC(=O)O)c2ccccc2)c(C)c1 (stereo unspecified) | -4 | 6 | -29 | 9.4 | 16 | 9387 | 4
4 | COc1ccc(C2N3CC4(C)CN2CC(C)(C3)C4)cc1OC (stereo unspecified) | -6 | 5 | -11 | 0.5 | 2 | 3898 | -2
5 | CCCc1ccc(C(=O)/C=C/N(C)C)cc1 | -11 | 8 | -80 | 12 | 3 | 4384 | -6
6 | CCCCn1c(C=NNc2nc3ccccc3[nH]2)nc2ccccc21 | nt | -2 | nt | -14 | -29 | nt | 7
7 | COc1ccc(CNc2nc(-c3cccnc3)nn2C(=O)c2cccs2)cc1 | -9 | nt | -5 | -5.3 | -4 | 2811 | nt
8 | O=C1CSC(c2cccs2)N1c1ccccc1 (stereo unspecified) | 0 | 8 | -15 | 4.1 | 6 | 6360 | -9
9 | CCOCCCNc1nc(=S)[nH]c2cc(OC)c(OC)cc12 | 2 | -10 | -15 | -3.9 | -2 | 4685 | -6
10 | CC(=O)c1cccc(NC(=O)Cn2nc(-c3ccccc3Cl)ccc2=O)c1 | -7 | 8 | 1 | -1.7 | 6 | 4316 | -1
11 | Cc1nn(-c2ccccc2)c2c1C(c1ccco1)C(C#N)=C(N)O2 (stereo unspecified) | 11 | -8 | -17 | -4.2 | -6 | 23537* | -16
12 | CCN1CCN(Cc2c(O)ccc3c(=O)c(-c4ccccc4OC)coc23)CC1 | -2 | 9 | -21 | 2.1 | 3 | 12782 | 7
13 | CCOc1ccc(-n2c(=S)sc3c(=O)n(-c4ccccc4)c(SCC(=O)O)nc32)cc1 | -2 | -4 | -20 | 3.4 | 12 | 2758 | -6
14 | OC1(c2ccccc2)CCN(Cc2ccccc2)CC1 | 4 | 16 | -5 | 10 | -2 | 3321 | 7
15 | CCn1cc(C2CC(=O)NC2=O)c2ccccc21 (stereo unspecified) | 0 | 7 | nt | 1.8 | 12 | 4198 | 11
16 | Cc1ccc(O)c(NS(=O)(=O)c2cccc3nsnc23)c1 | -10 | -1 | -15 | 0.5 | 16 | 3390 | 2
17 | Cc1cc(C(=O)Nc2ccccc2C)n(-c2ccccc2)n1 | -5 | 7 | -9 | -1.1 | 21 | 3814 | 7
18 | CCn1c(SCC(=O)Nc2sc3c(c2C#N)CCC(C(C)(C)C)C3)nnc1-c1ccco1 (stereo unspecified) | -1 | nt | -7 | -0.1 | -1 | 4971 | nt
19 | COc1ccc(-c2nn(-c3ccccc3)cc2/C=C(/C#N)C(N)=O)cc1[N+](=O)[O-] | -14 | 5 | -7 | 6.6 | -5 | 2168 | 8
20 | O=C(O)c1ccccc1N/N=C\c1ccnc2ccccc12 | 11 | nt | 17 | nt | nt | 2823 | nt
21 | COCc1cc(C)nc(OCC(=O)N/N=C/c2ccc(C)o2)c1C#N | -6 | nt | -1 | nt | nt | 2224 | nt
22 | Cc1ccccc1CC1(CO)CCCN(Cc2ccc(C#CC(C)(C)O)cc2)C1 (stereo unspecified) | -2 | 6 | -21 | 6.1 | 12 | 3473 | 0
23 | CCCCOC(=O)Cn1cnc2ccc(Br)cc2c1=O | -7 | 3 | -4 | 4.3 | 1 | 14665 | 6
24 | CSCC[C@H](NC(=O)[C@@H]1Cc2ccccc2CN1)C(=O)NC1CCCC1 | 5 | 6 | -3 | 6.0 | 4 | 5390 | 3
25 | CCNc1oc(COc2ccccc2F)nc1C#N | 4 | 4 | -43 | 8.0 | 5 | 3202 | 3
26 | COc1cc(SC)ccc1C(=O)Nc1ccc(C)cc1 | nt | -3 | -67 | -0.6 | 9 | 4501 | 5
27 | CN(Cc1ccc(OC(F)F)cc1)C(=O)c1cccc(S(=O)(=O)N2CCN(c3ccccc3)CC2)c1 | nt | 10 | -13 | 6.5 | -7 | 3899 | 8
28 | COc1ccc(-n2nc(C(=O)NCC(=O)NCCCN3CCN(C)CC3)c3ccccc3c2=O)cc1 | 3 | 13 | -27 | 2.4 | 0 | 3472 | 2
29 | CCCOc1ccc(-c2c(C(=O)N/N=C/c3ccccc3)nnn2-c2nonc2N)cc1 | -5 | nt | -10 | nt | nt | 5892 | nt
30 | Brc1ccccc1-c1nnc(COc2ncnc3ccccc23)o1 | -7 | 13 | -6 | 4.5 | 5 | 3574 | 6
31 | CCCCn1c(C23CC4CC(CC(C4)C2)C3)n[nH]c1=S | -7 | 8 | -11 | 0.8 | -4 | 4148 | -2
32 | COCCn1nnnc1C(C(C)C)N1CCCC(C)C1 (stereo unspecified) | -8 | 13 | 7 | 7.2 | 9 | 4597 | 2
33 | O=c1c2c(nc3cc(-c4ccccc4Cl)[nH]n13)CCS2 | 8 | 9 | -46 | 8.6 | 4 | 2744 | 16
34 | CC(=O)/C(N)=N/Nc1cccc(Cl)c1 | 11 | 4 | -16 | 3.9 | 7 | 3180 | 4
35 | COC(=O)[C@@]12CCCCN1C(c1ccc(SC3CCCCC3)cc1)C1C(=O)N(C)C(=O)C12 (stereo partly specified) | nt | 4&11 | nt | 2.3&0.5 | 2&13 | nt | 13&5
36 | CC1(CCc2ccccc2)NC(=O)N(CC(=O)Nc2ccc3c(c2)OCCO3)C1=O (stereo unspecified) | -2 | -3 | -32 | 2.4 | 14 | 4113 | -5
37 | NC(=O)COc1ccc(Nc2nnc(-c3ccc(O)cc3)c3ccccc23)cc1 | 14 | 18 | -11 | 4.0 | 3 | 4661 | 4
38 | CCCCn1c(N)c(N(Cc2ccccc2OC)C(=O)c2ccc(N3CCCC3=O)cc2)c(=O)[nH]c1=O | -3 | 0 | -11 | 0.3 | -1 | 5456 | 6
39 | O=C(NCC(c1ccc(F)cc1)N1CCOCC1)c1cc(F)c(F)c(F)c1F (stereo unspecified) | 0 | 0 | -2 | -1.3 | -2 | 2593 | 5
40 | CCN1CCN(Cc2c(OC)ccc3ccccc23)CC1 | 1 | 8 | -16 | 4.7 | 4 | 19532* | 6
41 | CC1C(c2ccccc2)N(C)CCC12NC(=O)NC2=O (stereo unspecified) | 4 | 9 | 8 | 4.7 | 10 | 8063 | 3
42 | COCCN(CC(=O)NCC1CCCO1)C(=O)CCC(=O)Nc1cc(C)ccn1 (stereo unspecified) | 2 | 5 | -7 | 6.1 | 9 | 3184 | 3
43 | Cc1cc(C)n2nc(C(=O)Nc3cc(S(=O)(=O)N4CCCCC4)ccc3C)nc2n1 | nt | -4 | -12 | 6.8 | 8 | 2779 | 5
44 | O=C(CCCc1ccccc1)Nc1ccnn1C1CCN(Cc2ccc(Cl)cc2)CC1 | 1 | -1 | -33 | 0.6 | -5 | nt | 1
45 | CCOc1cccc(Oc2ccc(C(F)(F)F)cn2)c1 | -5 | 22 | -7 | 2.7 | 3 | 8256 | 19
46 | Cc1cc(C(F)F)n2nc(C(=O)Nc3cccc(C(F)(F)F)c3)nc2n1 | 2 | 15 | -2 | -12 | -4 | 2876 | 6
47 | CN(C)c1ccc(Cc2ccc(N(C)C)cc2)cc1 | nt | -3 | 9 | 2.7 | 6 | 3715 | 7
48 | O=C(Cn1nc(-c2ccccc2)oc1=O)OCC(=O)c1ccccc1 | nt | 3 | 4 | 4.2 | 10 | 3136 | -2
49 | CCOC(=O)N1CCN(CC(=O)Nc2ccc(Oc3ccccc3)cc2)CC1 | -4 | -6 | -7 | -1.5 | -3 | 4157 | 3
50 | CNc1cc(C(F)(F)F)nc(-c2ccccn2)n1 | 1 | 8 | -4 | 2.1 | -6 | 19306* | 6

Profiles, looked up by structure. Order of values: BJeLR lethal | Mtb hypoxia rep | PrP 5UTR inh | RN4220 kill | Sa ugtP lethal | Bead autofluor | Mtb hypoxia rep growth
Results for `CC1C(c2ccccc2)N(C)CCC12NC(=O)NC2=O` (stereo unspecified) → 4 | 9 | 8 | 4.7 | 10 | 8063 | 3
Results for `COc1ccc(-n2nc(C(=O)NCC(=O)NCCCN3CCN(C)CC3)c3ccccc3c2=O)cc1` → 3 | 13 | -27 | 2.4 | 0 | 3472 | 2

Continued:
item | SMILES | BJeLR lethal | Mtb hypoxia rep | PrP 5UTR inh | RN4220 kill | Sa ugtP lethal | Bead autofluor | Mtb hypoxia rep growth
51 | C=CCN(CC(=O)Nc1c(C)cccc1CC)C(=O)SCCC | 7 | nt | 0 | 6.7 | 4 | 3191 | nt
52 | CC(=O)NS(=O)(=O)c1ccccc1 | 1 | 2 | -16 | 0.9 | 4 | 6629 | -2
53 | c1cc[n+](CCCC[n+]2ccccc2)cc1 | -10 | 16 | -4 | 6.3 | 8 | 2939 | 7
54 | CCOc1ccccc1OCc1nn2c(-c3ccc(C)cc3)nnc2s1 | 1 | 19 | -6 | 17 | -8 | 5753 | 12
55 | COC(=O)Cc1c(O)ccn(Cc2ccc3c(c2)OCO3)c1=O | 6 | 5 | -28 | 1.7 | 5 | 4815 | 8
56 | COc1ccc(OC(=O)NCCc2ccccc2)cc1 | 6 | 1 | -83 | 3.1 | 5 | nt | -8
57 | CCN(C(=O)c1ccc2c(c1)OCO2)C1CCS(=O)(=O)C1 (stereo unspecified) | -4 | 0 | -8 | 3.1 | 3 | ? | -4
58 | COc1ccc(/C=C2\N=C(c3c(-c4ccccc4)noc3C)OC2=O)cc1OC | 2 | nt | -5 | nt | nt | 5626 | nt
59 | COCc1c(C(=O)N/N=C\c2cccnc2)nnn1-c1nonc1N | 1 | nt | -8 | nt | nt | 5367 | nt
60 | COc1cccc(CNC(=O)c2cccc(NC(=O)CC3SC(N4CCCCC4)=NC3=O)c2)c1 (stereo unspecified) | nt | -12 | 7 | -1.1 | 0 | 3757 | 9
61 | Cc1ccc(N/C=C(/C#N)c2ccsc2)cc1 | 0 | nt | -88 | nt | nt | 2954 | nt
62 | COC(=O)c1c(C(=O)NCc2ccccc2)ncn1CC(O)COc1ccccc1 (stereo unspecified) | 3 | nt | -8 | 2.5 | -4 | 5457 | nt
63 | CN(C(=S)NC(=O)C1(C)CC1(Cl)Cl)c1ccccc1 (stereo unspecified) | -7 | 3 | -18 | 2.9 | 1 | 23191* | 1
64 | CCOc1ccc2[nH]c(=O)c(C(c3nnnn3C3CCCCC3)N3CCN(C)CC3)cc2c1 (stereo unspecified) | nt | 7 | -25 | 6.6 | -7 | 8586 | 7
65 | Cc1ccc(S(=O)(=O)N2C[C@@H]3[C@H]4CC[C@H](C4)[C@@H]3[C@@H](C)[C@@H]2c2cn(Cc3ccccc3)c3ccc(F)cc23)cc1 | nt | -6 | -22 | -0.9 | -3 | 3798 | -10
66 | CC(=O)c1ccc(Nc2ncnc3c2oc2ccccc23)cc1 | -7 | 13 | -62 | -1.9 | -5 | 2560 | 4
67 | CC(C(=O)N=Nc1c(O)n(C)c2ccc(Br)cc12)n1cnc2ccccc2c1=O (stereo unspecified) | -9 | 5 | nt | 1.3 | -6 | nt | -1

Among those listed so far, these have a cyano group.
item | SMILES | BJeLR lethal | Mtb hypoxia rep | PrP 5UTR inh | RN4220 kill | Sa ugtP lethal | Bead autofluor | Mtb hypoxia rep growth
1 | CSc1nc(N2CCCC2)c2c(c1C#N)CC(C)(C)OC2 | 1 | 6 | -12 | 2.8 | 0 | 4194 | 6
2 | Cc1cccc2cc3c(N)c(C#N)sc3nc12 | -4 | 5 | -22 | 2.3 | -8 | 9810 | 7
11 | Cc1nn(-c2ccccc2)c2c1C(c1ccco1)C(C#N)=C(N)O2 (stereo unspecified) | 11 | -8 | -17 | -4.2 | -6 | 23537* | -16
18 | CCn1c(SCC(=O)Nc2sc3c(c2C#N)CCC(C(C)(C)C)C3)nnc1-c1ccco1 (stereo unspecified) | -1 | nt | -7 | -0.1 | -1 | 4971 | nt
19 | COc1ccc(-c2nn(-c3ccccc3)cc2/C=C(/C#N)C(N)=O)cc1[N+](=O)[O-] | -14 | 5 | -7 | 6.6 | -5 | 2168 | 8
21 | COCc1cc(C)nc(OCC(=O)N/N=C/c2ccc(C)o2)c1C#N | -6 | nt | -1 | nt | nt | 2224 | nt
25 | CCNc1oc(COc2ccccc2F)nc1C#N | 4 | 4 | -43 | 8.0 | 5 | 3202 | 3
61 | Cc1ccc(N/C=C(/C#N)c2ccsc2)cc1 | 0 | nt | -88 | nt | nt | 2954 | nt
